Screening data deposited in PubChem BioAssay by National Center for Advancing Translational Sciences (NCATS).
ClpP mod: qHTS Assay for Activators of ClpP; AID 651965, 2013; purified B. subtilis ClpP, FRET peptide cleavage, 20 min; Potency, µM (top dose mostly 57.5 µM), for inactives: top-dose activity change, negative = active; 340,000 tested, 1.9% active; ATP-dependent Clp protease proteolytic subunit (Bacillus subtilis (strain 168)), P80244; active = well fitted falling curve with a large enough effect; inconclusive = small, poorly fitted or top-dose-only effect; inactive = no such curve, though single readings can be large or run the other way; also: potency is read from the fitted curve at half-maximal effect; the source files actives as falling curves though it sought activators and does not explain the sign; nearly all actives have a fitted effect of over 65% in size; many hits overshoot -100%
Target sequence (P80244 whole entry, looked up): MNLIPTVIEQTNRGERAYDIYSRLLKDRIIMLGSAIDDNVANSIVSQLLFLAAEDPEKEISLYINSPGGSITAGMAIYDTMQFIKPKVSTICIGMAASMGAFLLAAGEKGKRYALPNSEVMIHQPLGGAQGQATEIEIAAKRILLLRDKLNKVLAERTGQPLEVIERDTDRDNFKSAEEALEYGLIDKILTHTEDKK
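ClpP 10 microg/mL final, pH 8 Tris/KCl buffer with BSA, glycerol, Tween-20; compound pinned in; FRET-FV substrate; RT 20 min; Ex320/Em430; ΔFRET vs ADEP 5.8 microM, DMSO, no enzyme.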
gsp antagonist: antagonists of gsp mutant (McCune-Albright syndrome); gsp-mutant cells, cAMP HTRF, 30 min; control for the full effect not named in the record; Potency, µM (series often up to 76.9 µM), for inactives: at the top dose activity change, negative = inhibition, usual class: inhibitors; 340,000 tested, 0.4% active; AID 624288; active = falling curve of any shape with a large fitted effect; inconclusive = falling curve, mostly with a smaller effect; inactive = flat or rising curve; cell line not stated here;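 also: intracellular cAMP measured with PDE inhibitor Ro 20-1724 present during compound exposure; potency is read from the fitted curve at half-maximal effect; % is scaled to controls: 0 for no effect and ±100 for the full control effect; nearly all actives have a fitted effect of over 65% in size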
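Cells, 2000/well, grown 16–24 h in DMEM 10% FBS with 0.5 mg/ml G418, then compounds plus […] (300 uM addition stock), 30 min at 37C. cAMP read by HTRF (cAMP-d2 and anti-cAMP antibody-K in lysis buffer) after 30 min RT.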
Menin MLL FP FL: inhibitors of human menin-MLL interaction, wild-type MLL peptide. 290,000 tested, under 10 active. AID 1766. Fluorescence polarization, fluorescein-MLL peptide displacement from menin. FP activity change, % at 61.4 µM; inconclusive = falling polarisation curve, or a change in total fluorescence; inactive = total fluorescence flat and polarisation flat or rising; no compound was filed as active; the % refers to the polarisation; negative = inhibition;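 also: % of control where 0% means no effect; inhibitors lower the polarisation; unlabelled MLL peptide was the positive control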
Sfp PPTase inh: Sfp phosphopantetheinyl transferase inhibition; Biochemical Sfp PPTase activity, qHTS; Potency, µM, without a hit: max response, negative = inhibition, hits mostly inhibitors; 310,000 tested, 3.5% active; active = well fitted inhibition curve with a large enough effect; inconclusive = small, poorly fitted or top-dose-only effect, or another doubt; inactive = no such curve, though single readings can be large or run the other way;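 also: the enzyme is Sfp with the accession as filed and its product quenches rhodamine fluorescence; potency is read from the fitted curve at half-maximal effect; 0% = enzyme reaction without inhibitor and -100% = no enzyme wells; top concentration of the series not given in the record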
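Sfp 15 nM + cpd, 15 min RT; start w/ rhodamine-CoA 5 uM, BHQ-2-YbbR 12.5 uM (final); 50 mM Hepes pH 7.6, 10 mM MgCl2, 0.01% NP-40, 0.01% BSA; read 525/598 nm at 0 and 30 min.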
TRPML1 blocker: human mucolipin-1 channel inhibition; Q9GZU1; TRPML1-inducible cells, Ca2+ dye fluorescence, FDSS; active compounds read low; inhibition of EC80 agonist-evoked calcium signal; activity change, negative = inhibition, % (concentration not given with the values); 390,000 tested, 0.02% active; in the data active means activity change below about -50%; inconclusive means about -30% to -50%; inactive means above about -30%;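 also: stimulus is agonist 54-4 at its EC80 concentration; % is scaled to controls: 0 for no effect and ±100 for the full control effect; the text of the record puts the active cut at -80%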
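TRPML1-DL cells, Tet-induced overnight (~16 h, 37 °C) at 1,500 cells/well, were loaded with Ca8 no-wash dye plus quencher for 45-90 min at room temperature. Compounds were pinned during FDSS kinetic reading; agonist 54-4 at EC80 (4 uM final) then added.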
gsp agonist: gsp mutant agonism; gsp mutant cells, cAMP HTRF, 30 min; control for the full effect not named in the record; Potency, µM (doses to about 76.9 µM), for inactives: top-dose activation (cAMP increase), actives largely listed as activators; 340,000 tested, 0.13% active; AID 624287; active = well fitted activation curve with a large enough effect; inconclusive = small, poorly fitted or top-dose-only effect, or another doubt; inactive = no such curve, though single readings can be large or run the other way; cell line not stated here;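 also: phosphodiesterase inhibitor Ro 20-1724 added with compounds to block cAMP breakdown; potency is read from the fitted curve at half-maximal effect; nearly all actives have a fitted effect of over 60% in size; about a fifth of the inactives were tested at one dose only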
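Cells in DMEM/10% FBS with G418 were pretreated with compounds in DMSO plus […] (300 uM stock) for 30 min at 37C. cAMP was measured by HTRF (cAMP-d2 plus anti-cAMP antibody-K) after 30 min at room temperature.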
TRPV1 potentiator: human TRPV1 potentiation. Q8NER1. AID 540277. TRPV1-expressing cells, Fluo-8 calcium influx, capsaicin EC20 potentiation; host cell line not named in the record; control for the full effect not named in the record. 320,000 tested, 0.02% active. potentiation, % at 8.33 µM; active means potentiation above 80%; inconclusive means 30% to 80%; inactive means below 30%; also: 0% is about no effect
Target sequence (Q8NER1 whole entry, looked up): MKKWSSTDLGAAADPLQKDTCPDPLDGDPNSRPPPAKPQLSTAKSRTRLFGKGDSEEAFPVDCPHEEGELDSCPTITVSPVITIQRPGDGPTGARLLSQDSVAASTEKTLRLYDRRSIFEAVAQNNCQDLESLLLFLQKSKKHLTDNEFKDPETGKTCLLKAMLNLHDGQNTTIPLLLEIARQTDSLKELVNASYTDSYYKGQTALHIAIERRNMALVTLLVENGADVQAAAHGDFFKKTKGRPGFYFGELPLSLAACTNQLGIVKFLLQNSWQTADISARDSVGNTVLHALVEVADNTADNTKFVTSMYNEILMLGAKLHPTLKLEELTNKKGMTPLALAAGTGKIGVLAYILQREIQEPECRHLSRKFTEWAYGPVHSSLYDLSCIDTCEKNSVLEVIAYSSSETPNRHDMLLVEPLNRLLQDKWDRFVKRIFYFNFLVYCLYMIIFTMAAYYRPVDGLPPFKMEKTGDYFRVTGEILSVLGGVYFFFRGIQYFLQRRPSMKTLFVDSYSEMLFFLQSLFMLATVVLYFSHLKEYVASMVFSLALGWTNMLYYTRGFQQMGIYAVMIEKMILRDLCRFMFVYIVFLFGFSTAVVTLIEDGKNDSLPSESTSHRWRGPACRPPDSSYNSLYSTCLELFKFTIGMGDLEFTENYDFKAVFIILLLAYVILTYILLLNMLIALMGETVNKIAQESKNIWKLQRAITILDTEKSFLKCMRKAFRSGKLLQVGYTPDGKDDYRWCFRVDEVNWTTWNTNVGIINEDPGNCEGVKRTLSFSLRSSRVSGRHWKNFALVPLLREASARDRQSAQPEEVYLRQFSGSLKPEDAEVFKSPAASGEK
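TRPV1-expressing cells were cultured overnight at 35.5C and loaded with Fluo-8 calcium dye for 40 to 90 min at room temperature. After a 10 s baseline, compound was added and calcium influx was read kinetically for 3 min (ex 480/em 520 nm).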
Numbers without * were called inactive; ? = inconclusive; . = not tested or not shown; & = joins results of further samples; [ ] = another dose, or the depositor's remark.

The opening 3 records as a preview:
SMILES	ClpP mod	gsp antagonist	Menin MLL FP FL	Sfp PPTase inh	TRPML1 blocker	gsp agonist	TRPV1 potentiator
Nc1ccc(-c2cc(-c3ccc(N)cc3)nc(-c3ccccc3)n2)cc1	-2.8%	12%	12	-3%	5	?	9
Cc1ccc2c(c1)N(CC(=O)NCCCN1CCCCC1)C(=O)c1cccnc1O2	0.1%&-0.7%	3%	-3.3	17%	-8&-4	4%	8
Cc1ccc(C)c(CSc2nnc(-c3cccnc3)n2N)c1	0.1%	5%	1.0	-12%	11	-16%	1

The list itself (from the top)
SMILES	ClpP mod	gsp antagonist	Menin MLL FP FL	Sfp PPTase inh	TRPML1 blocker	gsp agonist	TRPV1 potentiator
Nc1ccc(-c2cc(-c3ccc(N)cc3)nc(-c3ccccc3)n2)cc1	-2.8%	12%	12	-3%	5	?	9
Cc1ccc2c(c1)N(CC(=O)NCCCN1CCCCC1)C(=O)c1cccnc1O2	0.1%&-0.7%	3%	-3.3	17%	-8&-4	4%	8
Cc1ccc(C)c(CSc2nnc(-c3cccnc3)n2N)c1	0.1%	5%	1.0	-12%	11	-16%	1
O=C1NC(CCc2ccccc2)C(=O)N1Cc1ccc(Br)cc1 (centres undefined)	.	.	5.9	11%	15	-11%[15.4 µM]	-13
CC(=O)N1CCc2c(sc(NC(=O)CS(=O)(=O)c3ccc(F)cc3)c2C(N)=O)C1	1.2%	5%	.	.	6	14%[15.4 µM]	-8
CC(C)(C)C(=O)NC(=S)Nc1ccccc1C(N)=O	-16%	15%	5.0	-2%	-2	-4%	4
COc1ccc(C(C)=O)cc1CSc1nc2cc(Cl)ccc2o1	0.4%	2%	7.0	3%	3	-1%	8
CSc1cccc2sc(NC(=O)C3=COCCO3)nc12	.	-4%	.	.	-14	4%[15.4 µM]	-18
O=C(CCN1C(=O)C2CC=C(Cl)CC2C1=O)NC1CCCCC1 (centres undefined)	-0.5%	12%	0.0	11%	-4	?	2
COc1ccccc1-c1nnc(SCC(=O)NC2CCS(=O)(=O)C2)n1N (centres undefined)	-1.3%	7%	-0.2	6%	?	-15%	-20
COc1ccc(N(CC(=O)NC2CCCC2)C(=O)CCC(=O)Nc2cc(C)on2)cc1OC	-0.9%	13%	8.0	16%	3	-5%[15.4 µM]	-4
COc1ccccc1OCCN1CSC(=S)N(C)C1	1.1%	-11%	-1.8	-11%	-12	-2%	17
Cc1cc(=O)oc2c(C(=O)c3ccccc3)c(OCC(N)=O)ccc12	0.4%	2%	-2.0	32%[activator]	-11	26%	-6
CC(Oc1cccc(Cl)c1)C(=O)N(C)CC(=O)Nc1ccc(N2CCOCC2)cc1 (centres undefined)	-0.9%	-10%	.	.	2	-17%	4
CC(C)Oc1cccc(C(=O)C2CCCN(C(=O)c3cc(C(F)(F)F)[nH]n3)C2)c1 (centres undefined)	1.2%	-24%	2.2	15%	-1	20%	3
O=C(NC1CCCC1)c1cccc2c1C(=O)c1ccc(N3CCCCC3)cc1S2(=O)=O	-2.6%	-22%	.	.	2	-48%[inhibitor]	-3
O=C(O)c1cnn(-c2nc(-c3ccc(Cl)c(Cl)c3)cs2)c1C(F)(F)F	.	-15%	-2.2	11%	19	21%[15.4 µM]	3
O=C(/C=C/c1ccccc1)NC1CCCc2ccccc21 (centres undefined)	.	.	4.6	15%	.	.	-18
O=C(NNC(=O)C1CCCN(S(=O)(=O)c2ccc3ccccc3c2)C1)C1CC1 (centres undefined)	.	5%	0.5	13%	-11	-11%	-6
Cc1nn(C)c(C(=O)N2CCN(C(=O)c3ccco3)CC2)c1Br	0.7%	-1%	1.0	2%	10	-7%	9
CCOC(=O)CC(=O)CSc1nc2sc(C)cc2c(=O)n1Cc1ccco1	-0.6%	-21%	22	0%	0	9%	1
O=C(CC(=O)c1cccc([N+](=O)[O-])c1)Nc1ccccc1Cl	.	3%	0.0	-1%	-8	-15%[15.4 µM]	-5
COc1ccc(C(=O)COC(=O)c2ccc3c(c2)OCCO3)c(OC)c1	-0.6%	-4%	.	.	7	2%[15.4 µM]	5
COc1cc2c(cc1OC)CN(CC(=O)Nc1cccc(C)c1)CC2	-7.1%	-7%	1.0	19%	-11	-4%	-12
c1ccc(C[n+]2cccc3c4ccccc4ccc32)cc1	71%	-6%	4.6	-6%	-2	13%	-1
COc1cc(C(C)=O)cc(OC)c1O	-0.8%	2%	-2.6	-6%	.	.	.
O=C(NCCCNCCCNC(=O)c1ccccn1)c1ccccn1	1.8%	4%	3.8	3%	11	?	-3
CC1CCCCN1CCCNC(=O)CN1C(=O)c2cccnc2Oc2ccc(Cl)cc21 (centres undefined)	-1.1%&-1.3%	-1%	.	4%	22&2	8%	-2
O=C(COc1ccccc1Cl)NC(=O)NC1CCCCC1	1.0%	1%	.	.	-3	1%	-19
CC(Oc1ccc2c3c(c(=O)oc2c1)CCCC3)C(=O)NCC(O)c1ccccc1 (centres undefined)	4.3%	-1%	-9.9	1%	-21	9%	-9
Cc1ccc(C)c(C(=O)COC(=O)Cn2c(C)csc2=O)c1	-1.6%	1%	.	-4%	5	10%	7
CCCCn1c(C)cc(C)c(S(=O)(=O)c2ccccc2C)c1=O	-4.1%	?	0.6	11%	-7	-6%	-10
CN(C)c1ccc(/C=N/NC(=O)c2nonc2N)cc1[N+](=O)[O-]	.	-8%	-1.5	16%	-4	8%[15.4 µM]	-11
COc1ccc(N2CCN(CC(O)COc3ccccc3[N+](=O)[O-])CC2)cc1 (centres undefined)	.	9%	1.0	12%	16	-1%[15.4 µM]	13
O=C(O)c1ccc(N2C(=O)c3cccc4cccc(c34)C2=O)cc1	-0.1%	5%	0.4	7%	7	19%[15.4 µM]	-30
COc1ccc(NC2c3ccccc3C(=O)N2c2ccccn2)cc1 (centres undefined)	0.5%	-1%	4.3	-9%	.	11%	-14
O=C(CCC1CCN(Cc2ccccc2O)CC1)NC1CC1	2.9%	0%	-1.4	7%	.	3%	-12
COc1ccc(CC2S/C(=N/N=C/c3ccc(O)cc3)NC2=O)cc1 (centres undefined)	.	0%	1.7	20%	-5	-19%	-4
CCc1nnc(NC(=O)CSc2nc3c(c(=O)n2C)SC(C)C3)s1 (centres undefined)	-1.3%	-8%	1.3	2%	0	-5%	1
CCn1c(=O)n(CC(=O)Nc2cccc(OC)c2)c(=O)c2ccccc21	-13%	6%	0.7	5%	-7	2%	8
Cc1ccc(S(=O)(=O)NNC(=O)c2snnc2C)cc1	2.1%	-4%	-2.9	?	21	-2%	-8
CCOc1cc(C)c(C(C)C)cc1S(=O)(=O)N1CCN(C)CC1	-1.8%	-1%[15.4 µM]	0.0	-14%	-5	-1%	0
COc1ccccc1CNC(=O)CN(c1ccc(C)cc1)S(=O)(=O)c1c(C)nn(C)c1C	2.5%	-15%	-0.6	9%	-1	-36%[inhibitor]	1
Cc1cc2cc3c(cc2nc1SCC(=O)OC(C)C)OCO3	0.5%	-6%	3.1	-3%	-5	-12%	8
O=C(CS(=O)(=O)c1cn(CC(=O)N2CCCC2)c2ccccc12)Nc1ccccc1F	1.8%	-1%	5.7	5%	20	-61%[inhibitor]	-4
COc1ccccc1C(=O)Nc1ccc2c(c1)CN(C(=O)CSC)CC2	.	-12%	8.8	13%	0	-39%[inhibitor]	-9
CCOC(CNC(=O)C(=O)Nc1cc2c3c(c1)CC(=O)N3CCC2)OCC	0.9%	1%	6.0	8%	11	?	18
O=C(Nc1ccc(S(=O)(=O)NC2=NCCCCC2)cc1)c1ccc([N+](=O)[O-])s1	-2.1%	-10%	.	.	14	17%	?
CC(C)CCN(C(=O)C1CSC2(C)CCC(=O)N12)c1c(N)n(Cc2ccccc2)c(=O)[nH]c1=O (centres undefined)	-2.7%	1%	.	.	27	-50%[inhibitor]	17
O=C(Nc1ccc(N2CCOCC2)c(S(=O)(=O)Nc2ccc(Cl)cc2)c1)c1ccc(=O)[nH]n1	-2.6%	-15%	.	.	-10	?	.
COCCCNC(=O)COc1cc(C)c(Cl)c(C)c1	0.1%	3%	5.2	11%	1	-3%	-16
COc1cccc(CNC2CCCc3ccccc32)c1OC (centres undefined)	.	5%	-1.0	-7%	16	-19%	-16
CC(=O)Nc1ccc(S(=O)(=O)N(Cc2ccccc2)C(C)C)cc1	1.4%	-6%	5.1	10%	-9	-12%	-14
CN(C(=O)c1ccc2c(c1)OCO2)C1CCCCC1	0.6%	1%	.	8%	-15	-14%	-2
COc1ccc(OC)c(Nc2nc(-c3ccc(O)c(O)c3)cs2)c1	-1.9%	-4%	7.2	-46%	-6	-5%	-7
FC(F)(F)c1cc(CCN2C(=S)NC[C@@H]2CC2CCCCC2)cc(C(F)(F)F)c1	0.5%	6%	1.8	29%	56	.	30
Cc1cc(Cl)nc(-c2ccccc2O)n1	-5.2%	-16%	0.5	16%	.	0%	8
COC(=O)CSc1nnc(-c2ccccn2)n1N	-1.2%	3%	3.3	-9%	21	7%[15.4 µM]	6
CN(C)S(=O)(=O)c1ccc(N2CCCC2)c(C(=O)N2CCC(C(N)=O)CC2)c1	-4.1%	5%	.	.	-2	4%	1
Cc1ccccc1CCN1CCCC(CN(C)CC(C)(C)C)C1 (centres undefined)	-0.5%	-1%	3.0	14%	17	-26%	19
The list goes on.
SMILES	ClpP mod	gsp antagonist	Menin MLL FP FL	Sfp PPTase inh	TRPML1 blocker	gsp agonist	TRPV1 potentiator
Cn1c(=O)c2c(ncn2CC(=O)N2CCc3ccccc3C2)n(C)c1=O	-3.1%	-2%	1.0	6%	1	42%	-27
O=C1C=C(c2ccccc2)C[C@@H](c2ccc3c(c2)OCO3)C1	0.2%	-16%	.	.	-4	-67%[inhibitor]	-11
COC(=O)c1ccc(NC(=S)NC2CCCCC2)cc1	-0.7%	?	0.0	6%	11	1%	-15
NS(=O)(=O)c1ccc(CCNC(=O)c2cccc(OC(F)F)c2)cc1	2.1%	-1%	4.1	12%	16	12%	7
